From PubChem
Vaccinia stage: Vaccinia orthopox stage-specific inhibition | Vaccinia-infected cells, mCherry/Venus stage reporter fluorescence; hits give low values; some inactives read as strong as hits | activity change (mCherry), % (concentration not given with the values) | actives 0.01% (n = 89,000);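 active means mCherry past -33% and 40 or more points under the early reporter, replicates agreeing; inconclusive means past -33% without that gap or agreement; tested in A549 cells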;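 further: scaled between vehicle wells and reference inhibitor wells; 23 nL library stock went into each well; one replicate is shown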
Vaccinia stage Venus: further read-out of Vaccinia stage, marked with its call; activity change (Venus), %; measured here: Venus reporter, other viral stage;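 negative = less Venus signal; first of two replicates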
Active calls of the source: *; ? = inconclusive; nt = no result given; & = joins results of further samples.

The line under a structure holds: Vaccinia stage	Vaccinia stage Venus
1. CS(=O)(=O)N1[C@@H]2c3ccc(-c4cccc(F)c4)c(=O)n3C[C@H]1[C@H](CO)[C@H]2C(=O)N1CCOCC1
    2	3
2. COc1ccc(S(=O)(=O)Nc2cccc3c2O[C@H](CN(C)Cc2ccc(-c4ccccc4)cc2)[C@@H](C)CN([C@H](C)CO)C3=O)cc1
    ?	nt
3. O=C(N[C@@H]1CC[C@@H](CC(=O)N2CCOCC2)O[C@H]1CO)c1ccccn1
    17	8
4. NCCCCCNC(=O)[C@@H]1C[C@@H]2C(=O)NCC(=O)N2[C@@H]1c1cccc(OCCO)c1
    14	6
5. CN(C)C(=O)c1cccc(-c2ccc3c(c2)[C@@H]2[C@@H](CCN2C(=O)C2CCOCC2)[C@@H](CO)N3)c1
    8	4
6. COc1ccc(CN2C(=O)[C@@H]3[C@H]4C(=O)O[C@H](c5ccccc5)[C@@H](C)N(C)C(=O)CC/C=C/[C@H]4O[C@@]34C=CCN(Cc3ccccc3)C(=O)[C@@H]24)cc1
    -17&-2	-13&-5
7. CC(C)NC(=O)N(C)C[C@@H]1Oc2cc(-c3cccnc3)ccc2S(=O)(=O)N([C@@H](C)CO)C[C@H]1C
    14	3
8. COc1ccccc1-c1ccccc1[C@H]1[C@H](C#N)N(C(=O)C2CCC2)[C@H]1CO
    2	-1
9. Cc1noc(C)c1S(=O)(=O)Nc1ccc2c(c1)C(=O)N([C@@H](C)CO)C[C@H](C)[C@H](CN(C)C(=O)Nc1cccc3ccccc13)OCCCC[C@H](C)O2
    0	2
10. CCCN(C)C[C@H]1Oc2ncc(C#CCN(C)C)cc2C(=O)N([C@H](C)CO)C[C@H]1C
    22	16
11. O=C(C[C@@H]1C=C[C@H](NC(=O)C2CCC2)[C@H](CO)O1)NCc1ccncc1
    6	0
12. CN(C)CC(=O)Nc1ccc2c(c1)[C@H]1C[C@H](CC(=O)NCCc3ccccc3)O[C@@H](CO)[C@H]1O2
    3	2
13. O=C(C[C@H]1C[C@@H]2c3cc(NC(=O)CC4CC4)ccc3O[C@@H]2[C@@H](CO)O1)NCc1ccccn1
    9	10
14. COc1ccc(S(=O)(=O)N(C)C[C@H]2Oc3c(NS(=O)(=O)c4cccs4)cccc3C(=O)N([C@H](C)CO)C[C@@H]2C)cc1
    7	10
15. O=C(NCC(F)(F)F)[C@@H]1[C@@H](CO)[C@@H]2Cn3c(cccc3=O)[C@H]1N2CC1CCCCC1
    1	5
16. COc1cccc(CNC(=O)C[C@H]2CC[C@@H](NC(=O)C3CCC3)[C@H](CO)O2)c1
    11	12
17. Cc1noc(C)c1NC(=O)N(C)C[C@H]1Oc2cc(C#CCN(C)C)ccc2S(=O)(=O)N([C@@H](C)CO)C[C@H]1C
    35	17
18. COc1ccc(S(=O)(=O)Nc2ccc3c(c2)CC(=O)N([C@@H](C)CO)C[C@H](C)[C@@H](CN(C)C(=O)Nc2cccc4ccccc24)O3)cc1
    21	9
19. CC(C)NC(=O)N[C@H]1CC[C@H](CC(=O)NC2Cc3ccccc3C2)O[C@@H]1CO
    -2	2
20. CCC(=O)N(C)C[C@@H]1Oc2cc(-c3cncnc3)ccc2S(=O)(=O)N([C@H](C)CO)C[C@@H]1C
    21	8

Complete entries, looked up by structure. Values in the order: Vaccinia stage	Vaccinia stage Venus
Shown for `CCC(=O)N(C)C[C@@H]1Oc2cc(-c3cncnc3)ccc2S(=O)(=O)N([C@H](C)CO)C[C@@H]1C` = 21	8
Shown for `O=C(N[C@@H]1CC[C@@H](CC(=O)N2CCOCC2)O[C@H]1CO)c1ccccn1` = 17	8
Shown for `CN(C)CC(=O)Nc1ccc2c(c1)[C@H]1C[C@H](CC(=O)NCCc3ccccc3)O[C@@H](CO)[C@H]1O2` = 3	2
Shown for `COc1ccc(S(=O)(=O)Nc2ccc3c(c2)CC(=O)N([C@@H](C)CO)C[C@H](C)[C@@H](CN(C)C(=O)Nc2cccc4ccccc24)O3)cc1` = 21	9
Shown for `COc1ccc(CN2C(=O)[C@@H]3[C@H]4C(=O)O[C@H](c5ccccc5)[C@@H](C)N(C)C(=O)CC/C=C/[C@H]4O[C@@]34C=CCN(Cc3ccccc3)C(=O)[C@@H]24)cc1` = -17&-2	-13&-5

Next part.
The line under a structure holds: Vaccinia stage	Vaccinia stage Venus
21. C[C@@H]1CCCCO[C@H](CN(C)S(C)(=O)=O)[C@H](C)CN([C@@H](C)CO)C(=O)c2cc(N(C)C)ccc2O1
    8	13
22. C/C=C/c1ccc([C@H]2[C@H](CO)N(C(=O)CC)[C@H]2CNC(=O)CC)cc1
    6	6
23. CC=Cc1ccc2n(c1=O)C[C@@H]1[C@@H](CO)[C@H](C(=O)Nc3ccc(-c4ccccc4)cc3)N(C(C)=O)[C@H]21 (mixture of isomers)
    -15	3
24. C[C@@H]1CN([C@@H](C)CO)C(=O)c2cc(C#CCc3ccccc3)cnc2O[C@@H]1CN(C)C(=O)C1CC1
    13	8
25. O=C(C[C@@H]1C[C@@H]2c3cc(NC(=O)Cc4ccncc4)ccc3O[C@@H]2[C@H](CO)O1)NCc1ccccn1
    8	9
26. Cc1cc(C(=O)Nc2cccc3c2O[C@@H](CN(C)Cc2ccncc2)[C@H](C)CN([C@@H](C)CO)C3=O)n(C)n1
    18	12
27. CS(=O)(=O)N1[C@H](CO)[C@H](c2ccc(C#Cc3cccc(F)c3)cc2)[C@@H]1C#N
    -12	-14
28. CCC(=O)Nc1ccc2c(c1)OC[C@@H](C)N(C(=O)NC(C)C)C[C@H](C)[C@@H](OC)CN(C)C2=O
    4	6
29. O=C(C[C@H]1C[C@H]2c3cc(NC(=O)c4ccc5c(c4)OCO5)ccc3O[C@H]2[C@H](CO)O1)NCc1cccc(F)c1
    10	8
30. O=C(C[C@@H]1CC[C@@H]2[C@H](COC[C@@H](O)CN2C(=O)c2cnccn2)O1)NCc1ccc(Oc2ccccc2)cc1
    4	-1
31. C[C@@H]1CCCCO[C@@H](CN(C)C(=O)CCCN(C)C)[C@H](C)CN([C@H](C)CO)C(=O)c2cc(NC(=O)C3CCCCC3)ccc2O1
    22	5
32. C/C=C/c1ccc2c(c1)O[C@H](CN(C)Cc1cccnc1)[C@H](C)CN([C@@H](C)CO)S2(=O)=O
    -13	-11
33. COc1ccccc1NC(=O)N(C)C[C@H]1Oc2ncc(C#CCC(C)C)cc2C(=O)N([C@@H](C)CO)C[C@H]1C
    -28	-24
34. Cc1noc(C)c1NC(=O)N(C)C[C@H]1OCCCC[C@@H](C)Oc2ccc(NS(=O)(=O)c3ccccc3)cc2C(=O)N([C@H](C)CO)C[C@H]1C
    21	1
35. C[C@H](CO)N1C[C@H](C)[C@@H](CN(C)C(=O)NC2CCCCC2)Oc2ccc(NC(=O)CCCN(C)C)cc2C1=O
    13	5
36. CCCC#Cc1ccc2c(c1)O[C@@H](CN(C)CC1CCOCC1)[C@@H](C)CN([C@H](C)CO)S2(=O)=O
    -19	-25
37. O=C(Nc1ccc(F)cc1)Nc1ccc2c(c1)[C@@H]1C[C@@H](CC(=O)N3CCOCC3)O[C@H](CO)[C@@H]1O2
    16	15
38. C[C@H](CO)N1C[C@H](C)[C@H](CN(C)C(=O)Nc2ccc(C(F)(F)F)cc2)OCCCC[C@H](C)Oc2ccc(NS(=O)(=O)c3cccs3)cc2C1=O
    ?	nt
39. Cc1noc(C)c1NC(=O)N(C)C[C@@H]1Oc2c(NS(=O)(=O)c3ccc(Cl)cc3)cccc2C(=O)N([C@H](C)CO)C[C@@H]1C
    8	6
40. O=C(NCCc1ccncc1)[C@H]1[C@H](CO)[C@H]2Cn3c(ccc(-c4ccc(F)cc4)c3=O)[C@@H]1N2
    6	1
41. C[C@@H]1CN([C@@H](C)CO)C(=O)c2cccc(NC(=O)C3CC3)c2O[C@H]1CN(C)C(=O)Nc1cccc2ccccc12
    -21	-11
42. C[C@H](CO)N1C[C@H](C)[C@H](CN(C)Cc2ccc(Oc3ccccc3)cc2)Oc2ccc(NS(=O)(=O)c3cccs3)cc2CC1=O
    -19	-12
43. COc1ccc(S(=O)(=O)Nc2ccc3c(c2)CC(=O)N([C@H](C)CO)C[C@@H](C)[C@H](CN(C)C(=O)NC2CCCCC2)O3)cc1
    10	-2
44. CC(C)CC#Cc1ccc2c(c1)O[C@@H](CN(C)C(=O)c1ccncc1)[C@@H](C)CN([C@@H](C)CO)S2(=O)=O
    ?	nt
45. O=C(NCc1ccccc1)C1=C[C@H](c2ccc(C(F)(F)F)cc2)C[C@H](OCCCCO)O1
    0	7
46. Cc1ccc(S(=O)(=O)Nc2ccc3c(c2)C(=O)N([C@@H](C)CO)C[C@H](C)[C@H](CN(C)C(=O)Nc2ccccc2)OCCCC[C@@H](C)O3)cc1
    -10	-13
47. O=C(C[C@H]1CC[C@@H](NS(=O)(=O)c2ccccc2)[C@H](CO)O1)N1CCc2ccccc2C1
    18	3
48. C[C@H]1CN([C@@H](C)CO)C(=O)c2cccc(NC(=O)Nc3ccc(F)cc3)c2O[C@@H]1CN(C)CC1CC1
    5	6
49. CO[C@H]1CN(C)C(=O)c2cc(NC(=O)C3CCCC3)ccc2OC[C@@H](C)N(CC2CC2)C[C@@H]1C
    0	4
50. COc1ccc2c3c([nH]c2c1)[C@@H](CO)N(C(=O)CN(C)C)CC31CCN(C(=O)c2cccnc2)CC1
    20	11
51. CCC(=O)N[C@H]1CC[C@@H](CCNC(=O)Nc2ccc(C(F)(F)F)cc2)O[C@H]1CO
    0	9
52. CC(C)NC(=O)N(C)C[C@@H]1Oc2c(NC(=O)c3ccc(-c4nccs4)cc3)cccc2C(=O)N([C@@H](C)CO)C[C@@H]1C
    14	10
53. COc1ccc(CN(C)C[C@@H]2Oc3ccc(NC(=O)CCN4CCOCC4)cc3C(=O)N([C@@H](C)CO)C[C@H]2C)cc1
    6	-6
54. C[C@@H]1CCCCO[C@@H](CN(C)C(=O)Nc2ccc(F)cc2)[C@H](C)CN([C@@H](C)CO)C(=O)c2cc(NC(=O)CCCN(C)C)ccc2O1
    10	8
55. CN1CCN(C(=O)C[C@@H]2C[C@H]3c4cc(NC(=O)Nc5ccc(F)cc5)ccc4O[C@H]3[C@H](CO)O2)CC1
    4	4
56. C[C@H](O)C#Cc1ccc([C@@H]2[C@@H](CO)N3CCCCN(C(=O)c4cccc(F)c4)C[C@H]23)cc1
    24	21
57. O=C(CN1CCOCC1)N[C@@H]1CC[C@@H](CCNS(=O)(=O)c2ccccc2F)O[C@@H]1CO
    0	-2
58. C[C@@H](NC(=O)C[C@@H]1C=C[C@H](NC(=O)C2CCC2)[C@@H](CO)O1)c1ccccc1
    0	16
59. CO[C@@H]1CN(C)C(=O)c2ccc(NC(=O)C3CC3)cc2OC[C@@H](C)N(C(=O)C2CCCCC2)C[C@H]1C
    0	-7
60. CCC(=O)N1[C@@H]2c3ccc(-c4ccncc4)c(=O)n3C[C@H]1[C@H](CO)[C@H]2C(=O)NC1Cc2ccccc2C1
    6	7

Filtered by structure: those above containing a cyano group
The line under a structure holds: Vaccinia stage	Vaccinia stage Venus
8. COc1ccccc1-c1ccccc1[C@H]1[C@H](C#N)N(C(=O)C2CCC2)[C@H]1CO
    2	-1
27. CS(=O)(=O)N1[C@H](CO)[C@H](c2ccc(C#Cc3cccc(F)c3)cc2)[C@@H]1C#N
    -12	-14

The results go on.
The line under a structure holds: Vaccinia stage	Vaccinia stage Venus
61. O=C(C[C@@H]1CC[C@@H]2[C@H](COC[C@@H](O)CN2C(=O)Nc2ccc(F)cc2)O1)NC1Cc2ccccc2C1
    -22	-18
62. COc1ccc2c3c(n(C)c2c1)[C@H](CO)N(Cc1ccccc1Cl)CC31CN(C(=O)CC2CC2)C1
    3	5
63. CN(C)CC(=O)N[C@H]1CC[C@@H](CCNC(=O)C2CCCC2)O[C@@H]1CO
    6	16
64. COc1ccccc1S(=O)(=O)N1CC[C@@H]2[C@@H](CO)Nc3ccc(-c4ccc(F)cc4)cc3[C@@H]21
    -30	-36
65. COCC(=O)N1[C@@H]2CN(C)c3ccccc3[C@@H]2[C@@H]1CO
    13	6
66. C[C@@H]1CCCCO[C@H](CN(C)C(=O)c2ccccc2)[C@@H](C)CN([C@H](C)CO)C(=O)c2cc(NC(=O)c3ccncc3)ccc2O1
    12&13	7&3
67. CCCNC(=O)N1[C@@H]2Cn3c(ccc(-c4cccc(C(=O)N(C)C)c4)c3=O)[C@H]1[C@@H](C(=O)O)[C@@H]2CO
    42	12
68. C[C@H]1CN([C@@H](C)CO)C(=O)c2cccc(NC(=O)c3cnccn3)c2O[C@@H]1CN(C)Cc1ccc(Cl)c(Cl)c1
    0	-7
69. Cc1noc(C)c1NC(=O)Nc1ccc2c(c1)CC(=O)N([C@@H](C)CO)C[C@@H](C)[C@H](CN(C)C(=O)NC1CCCCC1)O2
    25	8
70. CO[C@@H]1CN(C)C(=O)c2cc(NC(C)=O)ccc2OC[C@H](C)N(C(=O)CN2CCOCC2)C[C@@H]1C
    7	0
71. O=C(N[C@@H]1CC[C@H](CCNS(=O)(=O)c2ccc(F)cc2)O[C@H]1CO)c1cccc(F)c1
    -10	-5
72. COc1cccc(S(=O)(=O)N2CC[C@@H]3[C@@H](CO)Nc4ccc(C#Cc5ccccc5)cc4[C@@H]32)c1
    -9	-9
73. C[C@@H]1CN([C@H](C)CO)C(=O)CCCn2nncc2CO[C@H]1CN(C)Cc1ccc(C(=O)Nc2ccccc2N)cc1
    6	11
74. COc1ccc(CN(C)C[C@@H]2Oc3ccc(NS(=O)(=O)c4ccc(Cl)cc4)cc3CC(=O)N([C@H](C)CO)C[C@@H]2C)cc1
    -34	-24
75. C[C@@H]1CN([C@@H](C)CO)C(=O)c2cc(NS(=O)(=O)c3cn(C)cn3)ccc2O[C@H]1CN(C)CC1CC1
    23	26

A portion of the library; rates above refer to the full screens.
